Bioassay records from PubChem.
HPGD block: HPGD (human) dehydrogenase inhibition; P15428; purified HPGD, NADH fluorescence kinetic, PGE2 substrate; Potency, µM, without a hit: top-dose activity change, negative = inhibition, usual class: inhibitors; hit rate 4.3% among 150,000; active = well fitted inhibition curve with a large enough effect (not every such curve was filed as active); inconclusive = small, poorly fitted or top-dose-only effect, or another doubt; inactive = no such curve, though single readings can be large or run the other way;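 further: top concentration of the series not given in the record; plate controls included wells without enzyme; inactives centre near -10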
Target sequence (P15428 whole entry, looked up): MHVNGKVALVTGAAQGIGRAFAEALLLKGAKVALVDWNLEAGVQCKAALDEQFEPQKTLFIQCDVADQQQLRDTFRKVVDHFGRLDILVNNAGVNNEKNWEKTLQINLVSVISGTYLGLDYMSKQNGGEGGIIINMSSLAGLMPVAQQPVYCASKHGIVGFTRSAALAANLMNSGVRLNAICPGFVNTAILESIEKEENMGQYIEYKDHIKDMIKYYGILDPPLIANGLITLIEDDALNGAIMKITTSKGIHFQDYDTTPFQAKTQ
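20 nM HPGD preincubated 15 min at room temperature with compound in 50 mM Tris-HCl pH 8, 0.01% Tween 20. Started with 1 mM NAD+ and 30 uM prostaglandin E2; NADH fluorescence (360/450 nm) read 5 times over 30-s intervals, last minus first.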
An asterisk follows results filed as active. On the % scale 0 is the no-effect control and ±100 the full control effect; potency means the concentration at half of the fitted maximal effect.

`CCCCNc1nnc(SCC(=O)c2c[nH]c3ccccc23)s1` gave HPGD block -14%.
CS(=O)(=O)N1CCC(C(=O)NCc2ccco2)CC1 was read as HPGD block 0%.
Cc1c(C(=O)NN2CCOCC2)nn(-c2ccc(Cl)cc2Cl)c1-c1ccc(I)cc1 was read as HPGD block 7%.
Cc1ccccc1OCC(=O)OCC(=O)c1ccc(OCc2ccccc2)cc1 was read as HPGD block -10%.
`N#Cc1ccc(Oc2ccc(C(N)=O)cc2)cc1C#N` gave HPGD block -7%.
`CCn1c(C)nc2cc(C(=O)NNS(=O)(=O)c3c(C)c(C)cc(C)c3C)ccc21` gave HPGD block 2%.
Screening CCc1nc(N)nc2c1C(=O)CC(C)(C)C2 returned HPGD block -7%.
O=C(c1cc2ccccc2oc1=O)N(Cc1ccc2c(c1)OCO2)Cc1ccco1 was read as HPGD block -11%.
COc1ccc(C(=O)N[C@H](C(=O)Nc2nc3c(s2)CCCC3)C(C)C)cc1 was read as HPGD block -9%.
For CCOC(=O)/C=C/C(=O)OCC(=O)Nc1ccc(OC)c(Cl)c1 the results were HPGD block -12%.
Screening O=C(Cn1nc(C(F)(F)F)c2c1CCCC2)NCCN1CCOCC1 returned HPGD block 1%.
`COc1cccc(-c2cc(C(=O)N/N=C/c3ccc(OC)c(COC(C)=O)c3)c3ccccc3n2)c1` gave HPGD block inconclusive.
Screening CN(C)CC(CN(C)C)c1ccccn1 returned HPGD block -7%.
`CCN(CC)Cc1csc2ccc(Br)cc12` gave HPGD block -9%.
`Cc1cc(C)cc(NC(=O)NCc2nnc(SCc3ccccc3)n2C)c1` gave HPGD block -7%.
For N#CC1=C(N)SC(N)=C(C#N)C1c1ccc([N+](=O)[O-])cc1 the results were HPGD block inconclusive.
COc1ccc(COc2cc(-c3cccc(OC)c3)nc3ccc(NC(=O)c4ccc(OC)cc4)cc23)cc1 was read as HPGD block inconclusive.
For COC(=O)N1CCC2(CC1)CCN(c1ccccn1)CC2 the results were HPGD block -20%.
CCOC(=O)N1CCN(c2c(N3CC=C(c4ccccc4)CC3)c(=O)c2=O)CC1 was read as HPGD block -16%.
Screening Cc1cccc(-c2onc3ccc(C4(C)OCCO4)cc23)c1 returned HPGD block -14%.
Screening CC(C)N(Cc1nc(-c2ccccc2)no1)C(=O)c1ccc(Br)o1 returned HPGD block -15%.
Screening O=C(NCc1ccncc1)C1CCCN(S(=O)(=O)Cc2ccccc2)C1 (configuration not stated) returned HPGD block 5%.
N#Cc1ccc(OCC(=O)N/N=C2/CC(c3ccccc3)Oc3ccccc32)cc1 (configuration not stated) was read as HPGD block -9%.
CCOC(=O)CCc1c(C)c2ccc(OCC)c(C)c2oc1=O was read as HPGD block inconclusive.
COC(=O)CCSc1cc([N+](=O)[O-])cc2c1c(C1OCCS1)nn2-c1ccccc1 (configuration not stated) was read as HPGD block -8%.
O=C(NC1CCCc2ccccc21)C1CCN(C(=O)c2sccc2-n2cccc2)CC1 (configuration not stated) was read as HPGD block 1%.
Cc1nnsc1C(=O)Nc1ccc(Cl)cc1 was read as HPGD block -9%.
CCOP(=O)(c1ccccc1)C(O)c1ccc(Br)cc1 (configuration not stated) was read as HPGD block 0%.
Screening O=C(OCC(=O)c1ccccc1Cl)c1cnccn1 returned HPGD block -4%.
`COCCOC(=O)c1c(C)oc2ccc(OC(=O)COc3c(F)c(F)c(F)c(F)c3F)cc12` gave HPGD block -19%.
For COc1ccc(CNC2CCCCC2)cc1 the results were HPGD block -2%.
COC(=O)C1CCN(C(=O)CCC2CCCCC2)CC1 was read as HPGD block -11%.
For COC(=O)c1c(C(=O)OC)c(-c2ccccc2)n2c1CCC2 the results were HPGD block 3%.
`O=C(CSCc1nc2ccccc2[nH]1)Nc1ccc(Oc2ccccc2)cc1` gave HPGD block -2%.
Screening Cc1ccc2cc(CN(Cc3ccco3)C(=O)c3cccs3)c(=O)[nH]c2c1 returned HPGD block -10%.
Cc1nc(NCc2ccccc2)[nH]c(=O)c1CCC(C)C was read as HPGD block -18%.
Cc1ccc(C2CC(=O)c3cnc(NC(=O)c4ccco4)nc3C2)cc1 (configuration not stated) was read as HPGD block -13%.
Screening Cc1nc(N2CCOCC2)c(C#N)c(C)c1Br returned HPGD block -12%.
N=c1n(Cc2ccccc2)c2ccccc2n1CC(O)c1ccco1 (configuration not stated) was read as HPGD block -5%.
`Cc1ccccc1NC1=NC(=S)N(c2ccccc2)C12CCCCC2` gave HPGD block -3%.
Screening O=C(NNS(=O)(=O)c1ccc(Cl)cc1)c1cnn(-c2ccccc2)c1-n1cccc1 returned HPGD block -9%.
Screening CCn1c(-c2cccnc2Cl)nc2ccccc21 returned HPGD block -5%.
Screening CN(C)S(=O)(=O)c1ccc(N2CCOCC2)c(C(=O)O)c1 returned HPGD block -17%.
Nc1cc2ccccc2oc1=O was read as HPGD block -10%.
`O=C(NCCc1ccccc1)C1CCN(S(=O)(=O)c2ccc(-n3cnnn3)cc2)CC1` gave HPGD block -6%.
`O=C(NC1CCCCC1)C1CCCN(c2nnnn2-c2ccccc2)C1` (configuration not stated) gave HPGD block -23%.
`CCn1c(COc2ccc(Cl)c(C)c2)nnc1SCC(=O)N1CCCC1` gave HPGD block -11%.
Screening Cc1cc(C(=O)c2ccc(C(C)(C)C)cc2)c(NC(=O)CCl)s1 returned HPGD block 4%.
O=C(Oc1ccccc1)C1O[C@@H]1c1ccccc1 (some centres not stated) was read as HPGD block -5%.
`CCOC(=O)c1sc(Nc2nc3c(OC)cccc3s2)cc1C` gave HPGD block inconclusive.
`COc1ccc(C(=O)/C=C2/c3ccccc3CC(C)(C)N2C)cc1OC` gave HPGD block -10%.
Cc1cc(C)nc(NC(=O)NS(=O)(=O)Nc2ccc(Br)cn2)n1 was read as HPGD block -8%.
For Cc1ccc(C2=NC(C)(C)NC2=O)cc1 the results were HPGD block -5%.
Screening Cc1cc2ncn(C3CC(=O)N(C)C3=O)c2cc1C (configuration not stated) returned HPGD block 3%.
For CC1(C)CC(=O)c2cnc(NCC3CCCO3)nc2C1 (configuration not stated) the results were HPGD block 22µM*.
`CCC1=C2CC[C@H]3C(=O)NC(=O)[C@H]3[C@H]2[C@@]2(C)C(=O)N(CC3CC3)C(=O)N2C1=O` gave HPGD block -8%.
`CCCC(=O)c1c(NC(C)C)cc(C)oc1=O` gave HPGD block -17%.
COc1ccc(S(=O)(=O)N(Cc2ccc(OC)c(OC)c2)Cc2ccco2)cc1 was read as HPGD block -6%.
Screening COc1ccc(Cl)cc1NS(=O)(=O)c1cc(Cl)ccc1OC returned HPGD block -3%.
For CC1CCC/C(=N\NC(=O)COc2ccc(Cl)cc2Cl)C1 (configuration not stated) the results were HPGD block 3%.
Screening Oc1c(Br)cc(Br)cc1/C=N/N1CCN(Cc2ccccc2)CC1 returned HPGD block -13%.
Screening CC(C)(C)NC(=O)[C@@H]1C[C@@H]2CCCC[C@@H]2CN1C[C@@H](O)[C@H](Cc1ccccc1)NC(=O)[C@H](CC(N)=O)NC(=O)c1ccc2ccccc2n1 returned HPGD block -7%.
`Cc1nnc(SCC(=O)Nc2c(Cl)cccc2Cl)[nH]c1=O` gave HPGD block -10%.
`Cc1ccc(C(=O)Oc2ccccc2N2C(=O)C3CCC(C)CC3C2=O)cc1` (configuration not stated) gave HPGD block -15%.
For CCC(C)OC1OC(CO)C(O)C(O)C1NC(C)=O (configuration not stated) the results were HPGD block -19%.
Screening Cc1ccc(C)c(N(CC(N)=O)S(C)(=O)=O)c1 returned HPGD block -2%.
CCOC(=O)NC(NC(=S)Nc1ccc(OCC)cc1)C(Cl)(Cl)Cl (configuration not stated) was read as HPGD block -3%.
For c1ccc(-c2noc(C34CC5CC(CC(C5)C3)C4)n2)nc1 the results were HPGD block -5%.
For O=C(Cn1nc(C(F)F)cc1C(F)F)NNC(=S)Nc1ccc(F)cc1 the results were HPGD block -17%.
CCN1CCN(c2ncc(C(=O)Nc3ccccc3C(=O)OC)c3ccccc23)CC1 was read as HPGD block -22%.
`COc1ccc(/C=N/OCC(=O)N=Nc2c(O)[nH]c3ccc(Br)cc23)cc1OC` gave HPGD block -20%.
N#Cc1cn(CCCOc2ccccc2)c2ccccc12 was read as HPGD block -24%.
`COc1ccc(-c2cc(C(F)(F)F)nc(SCC(N)=O)n2)cc1` gave HPGD block inconclusive.
For c1ccc2sc(SCSc3nc4ccccc4s3)nc2c1 the results were HPGD block -29%.
CC(OC(=O)c1nn(C)c(=O)c2ccccc12)C(=O)NCc1ccc2c(c1)OCO2 (configuration not stated) was read as HPGD block 20µM*.

Of the compounds above, these have an aryl methoxy group.
COc1ccc(C(=O)N[C@H](C(=O)Nc2nc3c(s2)CCCC3)C(C)C)cc1 was read as HPGD block -9%.
For CCOC(=O)/C=C/C(=O)OCC(=O)Nc1ccc(OC)c(Cl)c1 the results were HPGD block -12%.
`COc1cccc(-c2cc(C(=O)N/N=C/c3ccc(OC)c(COC(C)=O)c3)c3ccccc3n2)c1` gave HPGD block inconclusive.
COc1ccc(COc2cc(-c3cccc(OC)c3)nc3ccc(NC(=O)c4ccc(OC)cc4)cc23)cc1 was read as HPGD block inconclusive.
For COc1ccc(CNC2CCCCC2)cc1 the results were HPGD block -2%.
`CCOC(=O)c1sc(Nc2nc3c(OC)cccc3s2)cc1C` gave HPGD block inconclusive.
`COc1ccc(C(=O)/C=C2/c3ccccc3CC(C)(C)N2C)cc1OC` gave HPGD block -10%.
COc1ccc(S(=O)(=O)N(Cc2ccc(OC)c(OC)c2)Cc2ccco2)cc1 was read as HPGD block -6%.
Screening COc1ccc(Cl)cc1NS(=O)(=O)c1cc(Cl)ccc1OC returned HPGD block -3%.
`COc1ccc(/C=N/OCC(=O)N=Nc2c(O)[nH]c3ccc(Br)cc23)cc1OC` gave HPGD block -20%.
`COc1ccc(-c2cc(C(F)(F)F)nc(SCC(N)=O)n2)cc1` gave HPGD block inconclusive.

The results go on.
Screening CCSc1ncc(C#N)c(=O)[nH]1 returned HPGD block -6%.
Screening CCC(OC(=O)c1nsc(Cl)c1Cl)C(=O)NCc1ccco1 (configuration not stated) returned HPGD block 10µM*.
`CCC(=O)NC(O)C(=O)c1ccc(C)cc1` (configuration not stated) gave HPGD block -2%.
`CCCn1c(NCc2c[nH]c3ccccc23)nc2ccccc21` gave HPGD block 0%.
For Cc1ccc(C2=CSC3=NCCN23)c(C)c1 the results were HPGD block inconclusive.
`O=C(O)c1cccc(S(=O)(=O)NCC2CCCO2)c1` (configuration not stated) gave HPGD block -5%.
Cc1cccc(COC[C@H](Cc2ccccc2)N2CCN(C(=O)c3cccc(Cl)c3)CCC2=O)c1 was read as HPGD block -6%.
`O=C(O)COc1ccccc1/C=C1\SC(=S)N(/N=C/c2ccccc2O)C1=O` gave HPGD block 8.9µM*.
Screening COc1cc(NC(=O)Cn2c(=O)n(-c3cccc(C)c3)c(=O)c3c(C)c(C)sc32)cc(OC)c1 returned HPGD block -8%.
Cc1nnsc1C(=O)Nc1ccc(Cl)cc1Cl was read as HPGD block -22%.
Cc1nc2cc(-c3ccccc3)nn2c(C)c1CCC(=O)N1CCN(c2ccccn2)CC1 was read as HPGD block -16%.
CC(C)NC(=O)NC(=O)COC(=O)CCOc1ccccc1 was read as HPGD block -4%.
`O=C(N/N=C/C=C/c1ccccc1[N+](=O)[O-])c1cc(-c2ccccc2)n[nH]1` gave HPGD block 25µM*.
`CCn1c(SCc2nnc(-c3ccccc3)o2)nc2c1c(=O)n(C)c(=O)n2C` gave HPGD block -7%.
`COc1ccc(CC(C)N2CCN(Cc3ccccc3)CC2)c(OC)c1` (configuration not stated) gave HPGD block -6%.
COc1cc(/C=N\Nc2ccc([N+](=O)[O-])cc2)ccc1OCC(=O)Nc1ccc(C)c(C)c1 was read as HPGD block -12%.
O=C(Nc1ccccc1)C1CC=CCC1C(=O)OCC1CCCO1 (configuration not stated) was read as HPGD block -2%.
CCOc1ncccc1C(=O)OCC(=O)Nc1cccc(C(C)=O)c1 was read as HPGD block -14%.
Nc1[nH]c(=O)nc2c1ncn2[C@H]1O[C@@H](CO)[C@@H](O)[C@@H]1O was read as HPGD block -5%.
COc1ccc(-c2ccnc3nc(Sc4ncc(C(F)(F)F)cc4Cl)nn23)cc1 was read as HPGD block inconclusive.
Screening O=C(CN1CCN(S(=O)(=O)c2ccc(Cl)cc2)CC1)NC(=O)NC1CCCCC1 returned HPGD block -14%.
`Cc1cc(C)nc(NC(=O)COc2cc(Cl)cc(Cl)c2)n1` gave HPGD block -3%.
Screening COc1ccccc1Oc1nnnn1-c1ccc(C(N)=O)cc1 returned HPGD block -8%.
Cn1c(=O)c2c(nc(SCC(=O)N3CCCCCC3)n2C)n(C)c1=O was read as HPGD block -7%.
`CSc1nc(-c2ccco2)nn1C(=O)CCc1ccccc1` gave HPGD block -14%.
COCC(=O)N1CCC2(CC1)CN(C(=O)Nc1ccccc1)C2 was read as HPGD block -4%.

Not all compounds are listed, so the mix of outcomes need not match the whole.
